# From PubChem
# B2AR ag – agonists of human beta-2 adrenergic receptor inducing internalization; AID 504454; 340,000 tested, 0.43% active; P07550; response, % (test concentration not listed); Am2.2-beta2AR cells, FAP receptor internalization, flow cytometry; reference of the scale not given here;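 active = response above a set limit, near 3 SD of response in nonfluorescent compounds, cut at about 42% in these data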;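 also: stock transfer was 100 nL into about 11 µL; a reference agonist was the positive control; negative values mostly stem from fluorescent compounds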
# A1 inh – inhibitors of the anti-apoptotic protein A1, read as caspase activation | MEF A1-2A-BIM cells, Caspase-Glo 3/7 luminescence, 3 h; percent of clofoctol response, vehicle zero | caspase activation, % (test concentration not listed) | 330,000 tested, 0.066% active;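 active = over half of replicate activation scores above 10%, or exactly half above 10 with the replicate mean above 10; inconclusive = replicate mean below 10 yet half the replicates above 10; inactive = over half of replicates below 10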;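 also: wells of about 30 µL received 50 nL stock; many hits fall short of the cut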
# Calb FLC – affects C. albicans growth with fluconazole | C. albicans CaCi-2 (fluconazole-resistant clinical isolate) + fluconazole, Alamar Blue growth, 48 h | AID 1979 | 300,000 tested, 0.57% active | growth inhibition, % (test concentration not listed);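 active = most replicates above 75%; inconclusive = exactly half above 75%; inactive = most below 75%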;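 also: all wells also contain fluconazole at 8 µg/ml as a sub-toxic cotreatment; 0% = median of DMSO wells and 100% = median of geldanamycin control wells; wells of about 8 µL received 7.5 nL stock; the first replicate is given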
# T cruzi repl – blocks replication of Trypanosoma cruzi. 300,000 tested, 1.4% active. T. cruzi beta-gal in NIH3T3, luminescence, 90 h. AID 1885. inhibition, % (concentration not given with the values);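 active = mean inhibition across valid replicates above about 55%, limit read from the data; inconclusive = mean below that limit but half or more replicates reach it; inactive = mean below it, under half of replicates reach it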;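 also: signal also drops with host cell toxicity which is not excluded here; 0% = plate median of DMSO wells and 100% = zero luminescence signal; higher percent means less beta-gal luminescence so fewer parasites; stock transfer was 50 nL into about 50 µL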
# UCH37 inh – inhibitors of human deubiquitinating enzyme UCH37; purified proteasome/UCH37, Ub-AMC cleavage fluorescence; inhibition, % (no concentration beside the values); 330,000 tested, 0.33% active;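 active = mean of two replicates above 20%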;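 also: 0% = compound-free wells with enzyme and 100% = wells lacking proteasome; stock transfer was 100 nL into about 20 µL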
#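 system = Proteasome-associated human UCH37 deubiquitinase | amount = 0.15 nM proteasome as dispensed | medium = pH 7.4 Tris-HCl (50 mM) with ovalbumin, ATP-MgCl2, DTT | incubation = 30 min preincubation with enzyme, 25 min cleavage at room temperature | detection = AMC fluorescence 355/460 nm | read-out basis = percent inhibition | controls = no-proteasome and no-compound wells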
# Beta apoptosis – blocks beta cell apoptosis; protection from apoptosis, % (concentration not given with the values); INS-1E cytokine-induced death, ATP luminescence, 48 h; percent of positive-control rescue, neutral wells zero; 300,000 tested, 0.8% active;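 active = all replicates at 75% or more, or half of them and the mean; inconclusive = half reach 75% but not the mean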;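 also: 0% = cytokine-treated negative control wells and 100% = positive control rescue; higher means more ATP so stronger rescue from cytokine killing; wells of about 40 µL received 100 nL stock; the first replicate is given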
# RanGTP-Imp inh – inhibitors of RanGTP-importin-beta interaction, primary screen, biochemical, FRET, CFP-Ran, YFP-importin-beta, homogeneous; 300,000 tested, 1.1% active; AID 2216; inhibition, % (no concentration beside the values); cell-free CFP-Ran/YFP-importin-beta FRET ratio;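 active = most replicates above 15%; inconclusive = exactly half above 15%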;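 also: 0% = DMSO wells and 100% = Ran loaded with GDP instead of GTP; wells of about 40 µL received 100 nL stock; the first replicate is given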
# LANA-H2B inh – blocks KSHV LANA binding to histone H2A/H2B; inhibition, % (concentration not given with the values); cell-free LANA-H2A/H2B peptide, fluorescence polarization; AID 2629; Q9QR71; 320,000 tested, 0.6% active; in the data active = inhibition mostly above about 10%, no sharp cut-off; inactive = mostly below about 6.7%;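 also: stock transfer was 7.5 nL into about 10 µL; 0% = median of vehicle wells and 100% = median of positive control wells; one replicate is shown; the record names a cut of 25% in any replicate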
# Target sequence (Q9QR71 whole entry, looked up): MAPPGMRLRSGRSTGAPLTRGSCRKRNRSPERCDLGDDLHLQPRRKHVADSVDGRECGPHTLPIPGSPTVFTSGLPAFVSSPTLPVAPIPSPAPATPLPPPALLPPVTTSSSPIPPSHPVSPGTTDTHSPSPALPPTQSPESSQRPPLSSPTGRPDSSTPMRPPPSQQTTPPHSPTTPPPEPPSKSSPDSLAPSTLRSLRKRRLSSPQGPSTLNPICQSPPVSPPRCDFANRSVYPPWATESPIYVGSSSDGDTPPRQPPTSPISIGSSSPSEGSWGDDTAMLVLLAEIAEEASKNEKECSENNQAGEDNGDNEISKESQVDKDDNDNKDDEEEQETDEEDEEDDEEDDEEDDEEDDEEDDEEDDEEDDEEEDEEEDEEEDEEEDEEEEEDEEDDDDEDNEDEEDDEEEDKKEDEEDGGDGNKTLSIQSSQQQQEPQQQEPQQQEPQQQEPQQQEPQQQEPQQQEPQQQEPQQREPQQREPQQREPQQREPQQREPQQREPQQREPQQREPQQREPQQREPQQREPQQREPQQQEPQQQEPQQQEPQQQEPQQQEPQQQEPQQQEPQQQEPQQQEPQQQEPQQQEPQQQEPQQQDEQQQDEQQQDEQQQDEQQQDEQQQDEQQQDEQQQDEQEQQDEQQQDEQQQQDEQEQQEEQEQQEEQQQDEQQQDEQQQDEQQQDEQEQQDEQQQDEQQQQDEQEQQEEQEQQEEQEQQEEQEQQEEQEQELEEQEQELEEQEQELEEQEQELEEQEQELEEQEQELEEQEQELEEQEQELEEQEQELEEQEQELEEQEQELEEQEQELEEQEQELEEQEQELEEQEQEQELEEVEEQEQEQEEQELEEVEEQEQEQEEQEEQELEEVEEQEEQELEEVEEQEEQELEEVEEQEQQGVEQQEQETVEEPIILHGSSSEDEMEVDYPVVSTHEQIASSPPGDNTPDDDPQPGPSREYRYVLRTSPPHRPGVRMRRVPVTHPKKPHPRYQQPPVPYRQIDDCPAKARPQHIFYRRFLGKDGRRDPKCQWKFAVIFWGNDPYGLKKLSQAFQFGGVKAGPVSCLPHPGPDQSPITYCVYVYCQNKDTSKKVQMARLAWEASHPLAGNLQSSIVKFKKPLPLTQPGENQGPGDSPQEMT
# The depositor's hits bear a star; ? = inconclusive; . = no result given.
SMILES,B2AR ag,A1 inh,Calb FLC,T cruzi repl,UCH37 inh,Beta apoptosis,RanGTP-Imp inh,LANA-H2B inh
CN(C)C(=O)Oc1ccc(OC(=O)c2ccccc2)cc1,6.7,-3.9,-23.9,-1.8,-0.2,1.4,-0.8,5.1
CCCCn1c(O)c(C(CC)=Nc2cccc(C(=O)O)c2)c(=O)[nH]c1=O,-4.1,-0.5,0.5,-16.3,-1.7,-1.9,4.5,1.5
Cc1nc(SCc2c(Cl)cccc2Cl)nc(OC(=O)N(C)C)c1C,-4.5,-0.3,8.3,43.2,5.9,-1.0,4.4,1.0
Cc1ccc(-n2nc(C)cc2NC(=O)COc2cc(C)cc3oc(=O)c4c(c23)CCC4)cc1,9.7,1.3,-8.2,9.2,-31.2,10.2,-2.2,0.1
Cn1c(O)c(C=NC2C(=O)C3(C)CCC2C3(C)C)c(=O)n(C)c1=O (configuration not stated),-0.5,0.8,-6.1,-5.2,1.4,-7.0,-2.5,-0.9
C[C@]12CC[C@@H](O)CC1=CCC1C2CC[C@@]2(C)C1C[C@@H](F)[C@@H]2O (some centres not stated),-1.6,0.4,.,.,-0.1,1.5,.,-3.1
C[N+]1(C)C2CCC1CC(OC(=O)c1ccco1)C2 (configuration not stated),1.6,-0.1,1.8,2.6,17.8,0.5,-4.3,0.0
C[C@]12CC[C@H]3[C@@H](CC[C@]4(O)C[C@@H](O)CC[C@]34C=O)[C@@]1(O)CC[C@@H]2C1=CC(=O)OC1,1.4,0.0,.,.,3.3,0.0,.,-3.0
C=CCn1c(O)c(/C=N/N2CCCCC2c2cccnc2)c(=O)[nH]c1=S (configuration not stated),2.4,0.6,-3.0,-21.7,7.8,-4.9,0.8,-6.0
Clc1ccccc1CN1CCN(c2cccc3[nH]ccc23)CC1,0.0,-0.5,-6.2,17.4,6.3,2.0,-0.9,-3.4
Cc1ccccc1NC1=NCCCS1,0.2,0.0,-11.4,-24.5,-0.2,-2.8,2.7,0.0
COc1ccccc1CC1C(=O)C2CCN1CC2 (configuration not stated),-1.3,1.1,-2.8,-2.6,0.7,-0.1,2.9,-0.7
O=C1NC(=O)N(c2cccc(Cl)c2)C(=O)/C1=C\c1ccc(Sc2nc3ccccc3[nH]2)o1,4.3,-0.3,3.9,-42.5,5.5,1.0,-3.5,0.6
Clc1ccc(-c2nc3ccc(Cl)cn3c2CN2CCCCC2)cc1,-8.2,0.0,2.2,38.0,1.0,6.0,-4.7,-0.9
CN1C(=O)N(C)C(=O)C2(Cc3cc(N)ccc3N3CCN(c4ccccc4F)CC32)C1=O (configuration not stated),.,?,-0.9,-2.1,.,-1.0,-6.7,0.3

# 4 entries drawn at random from those above:
SMILES,B2AR ag,A1 inh,Calb FLC,T cruzi repl,UCH37 inh,Beta apoptosis,RanGTP-Imp inh,LANA-H2B inh
CCCCn1c(O)c(C(CC)=Nc2cccc(C(=O)O)c2)c(=O)[nH]c1=O,-4.1,-0.5,0.5,-16.3,-1.7,-1.9,4.5,1.5
CN1C(=O)N(C)C(=O)C2(Cc3cc(N)ccc3N3CCN(c4ccccc4F)CC32)C1=O (configuration not stated),.,?,-0.9,-2.1,.,-1.0,-6.7,0.3
O=C1NC(=O)N(c2cccc(Cl)c2)C(=O)/C1=C\c1ccc(Sc2nc3ccccc3[nH]2)o1,4.3,-0.3,3.9,-42.5,5.5,1.0,-3.5,0.6
Cc1ccc(-n2nc(C)cc2NC(=O)COc2cc(C)cc3oc(=O)c4c(c23)CCC4)cc1,9.7,1.3,-8.2,9.2,-31.2,10.2,-2.2,0.1

# Remaining list, next part
SMILES,B2AR ag,A1 inh,Calb FLC,T cruzi repl,UCH37 inh,Beta apoptosis,RanGTP-Imp inh,LANA-H2B inh
Cc1nc2ccccc2c(=O)n1-c1ccc([N+](=O)[O-])cc1,5.3,1.0,15.4,-7.0,4.8,4.8,2.7,-15.3
CCCOC(=O)Nc1ccc([As](=O)(O)O)cc1NC(=O)OCCC,1.4,?,3.9,2.1,1.2,-3.5,4.4,-0.4
COc1cccc(C(=O)C2CCCN(Cc3cccc4c3OCO4)C2)c1 (configuration not stated),-3.1,0.8,107.8*,44.1,0.2,13.4,-1.3,0.7
O=C(O)C(Cl)(Cl)Cl,.,?,.,9.7,1.2,6.8,-2.3,-0.4
Cn1c(O)c(C=NCCCC(=O)O)c(=O)n(C)c1=O,-2.7,-1.0,4.3,-20.4,3.0,-6.5,?,1.0
OCC(Br)CBr (configuration not stated),0.9,0.3,.,.,-1.0,0.3,.,-10.0
COC(=O)C1=C(c2ccc(F)cc2F)C[C@@H]2CC[C@H]1N2C(=O)N1CCC(O)(c2ccc(Cl)cc2)CC1,5.8,1.2,.,.,-3.4,0.5,.,-5.7
COC(=O)C1C2c3ccccc3OC1(C)N=c1s/c(=C/c3cnn(C)c3)c(=O)n12 (configuration not stated),-1.9,0.0,-30.6,2.1,.,-1.2,-1.5,4.5
CCOC(=O)C1CCN(C=C2C(=O)N(C)C(=S)N(C)C2=O)CC1,1.9,0.1,-1.0,-4.5,.,2.8,5.1,4.6
CCN(CC)CCCN=Cc1c(O)n(Cc2ccc(F)cc2)c(=O)[nH]c1=O,-5.3,1.0,-9.1,-10.8,-0.8,-12.9,-3.8,6.4
COc1cc2c3cc1Oc1cc(ccc1O)C[C@@H]1c4c(cc(OC)c(O)c4Oc4ccc(cc4)C[C@H]3N(C)CC2)CCN1C,15.7,0.8,-13.1,25.6,0.9,0.9,-1.6,-0.4
O=C(c1ccccc1)N1CCC2(CC1)OCCO2,-3.9,0.9,-0.5,-11.1,3.7,-1.5,1.7,1.5
CN1C(=O)N(C)C(=O)C2(Cc3cc(NC(=O)c4ccccc4)ccc3N3CCCC32)C1=O (configuration not stated),13.3,0.3,8.0,3.5,-4.2,0.7,-1.4,3.1
COC(=O)C1=C(c2cccc(OC)c2OC)C[C@@H]2CC[C@H]1N2C(=O)N1CCOCC1,-2.8,0.3,-0.2,-4.2,3.4,-17.8,1.0,1.8
O=C(c1ccc(CNS(=O)(=O)c2ccc(Br)cc2)cc1)N1CCC2(CC1)OCCO2,5.8,1.1,-4.8,0.6,4.8,-0.7,-3.0,3.1
Cc1cccc(NP(=O)(Oc2ccccc2F)Oc2ccccc2F)c1C,-1.8,0.1,4.7,-15.4,5.1,-5.1,-0.2,-4.9
Cc1ccc2nc3c(cc2c1)CC1(C(=O)N(C)C(=O)N(C)C1=O)C1CCCCN31 (configuration not stated),-0.8,-1.0,1.9,2.3,-47.1,-8.5,7.9,4.2
COC(=O)C1=C(c2cccc(OCc3ccccc3)c2)C[C@@H]2CC[C@H]1N2C(=O)NCCCc1ccccc1,-2.7,2.1,.,.,1.7,2.2,.,-5.1
COc1ccccc1CC1/C(=N/O)C2CCN1CC2 (configuration not stated),10.1,0.2,-17.9,-5.6,.,-24.1,-5.8,0.5
COc1cc(C(O)CN)ccc1O (configuration not stated),0.5,-0.9,.,.,-3.0,.,.,-4.8
COC(=O)c1cn(C(=O)c2cccc3ccccc23)c2ccccc12,7.9,1.3,3.0,-37.8,6.0,32.1,-0.1,-2.2
O=C(NC(=S)N1C[C@H]2C[C@H](C1)c1cccc(=O)n1C2)c1ccc(Cl)cc1,0.5,0.0,-1.0,-8.7,-0.2,-5.9,-1.0,-3.5
COc1ccc(C2C(C(=O)N3CCC4(CC3)OCCO4)c3cc(OC)c(OC)cc3C(=O)N2C)cc1 (configuration not stated),4.1,1.4,25.7,-6.2,3.9,-10.3,-1.2,-1.2
CCC1(CC)C(=N)N(C)C(=O)NC1=O,8.8,-0.5,-5.0,-4.5,-2.9,-5.6,3.0,-2.3
O=C(C(=O)N1CCOCC1)c1cn(Cc2ccccc2F)c2ccccc12,-6.4,0.2,4.3,-7.3,2.7,3.3,6.8,-3.2
COC(=O)C1=C(c2cccc(C#N)c2)C[C@@H]2CC[C@H]1N2C(=O)N1CCC(O)CC1,-4.1,-0.3,.,.,5.9,1.9,.,-0.3
CN(Cc1ccccc1)Cc1ccccc1OC(=O)N(C)C,5.1,1.1,-17.3,-8.5,4.0,-15.0,1.3,-2.7
CCC(=O)c1ccc(OC(=O)N(C)c2ccccc2)cc1,-2.4,-3.8,-2.9,-2.9,-1.4,-1.4,0.8,13.2
O=C1N(c2ccc(Cl)cc2)C(c2cccnc2)N2CCCN12 (configuration not stated),-5.8,-0.5,-6.3,53.2,2.9,-4.0,-1.3,-2.7
Cc1nc2nc(C)c(CCC(=O)N3CCC4(CC3)OCCO4)c(C)n2n1,0.2,-0.4,4.7,-11.4,2.7,-3.6,3.7,1.0

# Part of the list above, with two lines to a compound:
# Second line of a record – B2AR ag | A1 inh | Calb FLC | T cruzi repl | UCH37 inh | Beta apoptosis | RanGTP-Imp inh | LANA-H2B inh
- COc1ccc(C2C(C(=O)N3CCC4(CC3)OCCO4)c3cc(OC)c(OC)cc3C(=O)N2C)cc1 (configuration not stated)
  4.1 | 1.4 | 25.7 | -6.2 | 3.9 | -10.3 | -1.2 | -1.2
- COc1cc(C(O)CN)ccc1O (configuration not stated)
  0.5 | -0.9 | . | . | -3.0 | . | . | -4.8

# (cont.)
SMILES,B2AR ag,A1 inh,Calb FLC,T cruzi repl,UCH37 inh,Beta apoptosis,RanGTP-Imp inh,LANA-H2B inh
COc1ccccc1NC(=O)c1cn(CCC#N)nc1-c1ccc(F)cc1,-23.1,0.6,-27.2,4.9,.,-4.9,2.1,6.5
Cc1cccn2c(=O)c3cc(C(=O)N4CCC5(CC4)OCCO5)n(C)c3nc12,18.2,-0.1,-5.0,11.6,-412.3,-6.1,3.0,0.4
CN1CCN(c2ccc([N+](=O)[O-])c(Sc3ccccn3)c2)CC1,7.7,0.5,-3.8,4.8,12.5,8.5,-3.5,-0.3
COc1ccc(C(=O)C(C)(C)NO)cc1,-0.4,0.7,1.1,-4.1,1.6,-0.5,-1.6,-3.8
Cc1cc(=O)[nH]c(CCl)n1,-1.3,-0.8,1.8,0.6,1.3,-0.8,0.7,1.2
COc1ccc(OC)c(N2Cc3ccccc3C2=N)c1,-1.5,-0.2,0.3,-19.2,4.3,-1.8,-3.2,1.8
CN1C(=O)C(=Cc2ccccc2Oc2ccc(Cl)cc2)C(=O)N(C)C1=O,3.6,-0.1,-7.7,-4.0,3.6,-10.1,-0.7,-4.9
CCOC(=O)c1ccc(N2C(=O)CC(N3CC=C(c4ccc(F)cc4)CC3)C2=O)cc1 (configuration not stated),14.8,-0.3,0.9,-5.6,1.1,-4.1,?,-12.7
COc1ccc(-c2csc(NC(=O)COC(=O)Cc3ccccc3)n2)cc1OC,.,-0.1,-5.7,-7.2,4.0,-2.1,-4.9,-0.1
COC(=O)C1=C(c2ccccc2)C[C@@H]2CC[C@H]1N2C(=O)NCCCOC(C)C,-1.4,-0.4,8.6,-14.4,3.9,-6.5,?,-1.3
CC(=O)N1CCN(CCN=Cc2c(O)n(-c3ccc(F)cc3)c(=S)[nH]c2=O)CC1,15.2,-0.1,-0.7,-9.5,6.8,3.6,-0.4,-10.7

# The list is partial, so the mix of outcomes need not match the whole.
